FGF22 binding: binders of human FGF22 protein, primary screen, FGF22 synaptogenesis inhibitor project, biophysical, thermal shift, single point | Fibroblast growth factor 22 (Homo sapiens), Q9HCT0 | recombinant FGF22 thermal shift, SYPRO orange fluorescence; percent of sucrose octasulfate shift, DMSO zero | calls only at 9.99 µM | actives 1.5% (n = 340,000) | AID 651658, 2012;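 active = melting point raised past a set limit in the mean and every replicate; three in four hits are not shown here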
Target sequence (Q9HCT0 whole entry, looked up): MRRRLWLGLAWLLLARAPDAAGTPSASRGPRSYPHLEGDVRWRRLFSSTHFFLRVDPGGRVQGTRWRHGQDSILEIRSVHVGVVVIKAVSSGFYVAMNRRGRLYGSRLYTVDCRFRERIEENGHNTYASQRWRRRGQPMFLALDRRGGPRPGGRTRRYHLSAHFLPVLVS
AF4-AF9 inh: inhibitors of AF4 peptide binding to AF9, primary screen, biochemical, AlphaScreen, biotin-AF4 peptide, FLAG-AF9, single point; inhibition, % at 10 µM; AID 651704, 2012; actives 0.47% (n = 350,000);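 active = every replicate reaching a set inhibition limit, whatever the replicate mean, cut at about 25% in these data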;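 also: 0% = plate neutral control median and 100% = total signal loss; the record names both 10 and 1 µM as test concentration; the first replicate is given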
Target sequence (P42568 whole entry, looked up): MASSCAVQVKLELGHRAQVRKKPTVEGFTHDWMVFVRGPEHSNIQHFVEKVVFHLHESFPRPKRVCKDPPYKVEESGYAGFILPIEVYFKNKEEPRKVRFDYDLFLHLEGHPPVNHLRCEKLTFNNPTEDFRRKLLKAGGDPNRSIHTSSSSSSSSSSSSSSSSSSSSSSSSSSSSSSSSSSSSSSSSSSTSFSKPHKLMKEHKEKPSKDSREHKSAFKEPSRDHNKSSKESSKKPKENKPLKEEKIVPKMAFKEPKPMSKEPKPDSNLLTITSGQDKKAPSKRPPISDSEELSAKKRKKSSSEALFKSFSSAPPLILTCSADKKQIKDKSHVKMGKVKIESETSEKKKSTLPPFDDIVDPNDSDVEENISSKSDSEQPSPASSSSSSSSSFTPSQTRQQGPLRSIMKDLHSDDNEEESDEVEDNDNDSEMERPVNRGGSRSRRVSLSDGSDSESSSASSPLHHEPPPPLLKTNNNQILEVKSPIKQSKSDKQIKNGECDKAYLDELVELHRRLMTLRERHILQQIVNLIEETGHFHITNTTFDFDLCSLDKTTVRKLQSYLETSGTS
rRNA inh HTS: reduced GFP signal of wild-type E. coli, primary screen, bacterial rRNA inhibitor project, GFP/RFP fluorescence, OD600, single point; E. coli WT GFP vs humanized-ribosome RFP mutants, 24 h; hits give low values; DMSO median 0, no signal -100; actives 1.6% (n = 350,000); GFP signal change (wild-type ribosome), % (no concentration beside the values);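 active = significant combined selectivity score with lowered wild-type GFP, culture density cut under 30%, mutant RFP and density less affected; inactive = any of these conditions unmet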; also: one replicate is shown; some compounds called inactive have numbers as strong as hits
rRNA inh HTS OD600: second read-out of rRNA inh HTS, no call of its own (marks repeat the call); OD600 change, %; measured here: OD600 growth;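 optical density of the mix in the first replicate; 0 = DMSO median and -100 = no signal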
rRNA inh HTS RFP: recorded beside rRNA inh HTS, whose call it bears; RFP signal change, %; measured here: RFP humanized mutant strains;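 first replicate; 0 = DMSO median and -100 = no signal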
* = called active by the depositor; i = inactive; + = active, no number.

SMILES | FGF22 binding | AF4-AF9 inh | rRNA inh HTS | rRNA inh HTS OD600 | rRNA inh HTS RFP
C[C@@H]1CN([C@H](C)CO)C(=O)Cc2cc(NC(=O)C3CCCCC3)ccc2O[C@@H]1CN(C)C(=O)Nc1ccccc1 | i | -4.3 | 5 | 9 | 0.5
CN1C(=O)c2cc(NS(C)(=O)=O)ccc2OC[C@@H]2O[C@@H](CC(=O)NCc3ccccc3)CC[C@H]21 | i | -0.5 | 2 | 12 | 1.8
C[C@H]1CN(c2ccccc2)C(=O)[C@@H]1CC(=O)Nc1ccccc1 | i | -3.7 | 3 | 1 | -2.8
C#CCn1c2ccccc2c(=O)n1C(C)C | i | -0.1 | 5 | 7 | -2.0
Cc1cnc(CNC(=O)c2csc([C@H]3C[C@H](O)[C@@H](CO)O3)n2)cn1 | i | -2.4 | 3 | 14 | -4.5
Cc1ccccc1-c1cnc2c(c1)C(=O)N([C@@H](C)CO)C[C@@H](C)[C@H](CN(C)CC1CCOCC1)O2 | i | 1.2 | -2 | -2 | -1.3
CCN1C[C@@H]2[C@@H]3C(=O)N(Cc4ccccc4)C(=O)[C@@H]3[C@](Cc3ccccc3)(C1=O)N2C(=O)c1ccc(C)cc1 | i | 4.2 | -12 | -6 | -12
O=C(COC(=O)c1ccc(C(F)(F)F)cc1)NC(=O)NC1CCCC1 | i | -0.5 | 11 | 15 | -0.6
COCC(=O)N1C[C@H]2[C@@H](c3ccccc31)[C@H](CO)N2C(=O)C1CCCC1 | i | -2.5 | 2 | 8 | 0.6
COCCN(CC(=O)Nc1cccc(S(=O)(=O)N2CCCC2)c1)Cc1nc2ccccc2c(=O)[nH]1 | i | 0.4 | 4 | 5 | 3.8
Cc1ccccc1-c1ccc2c(c1)O[C@@H](CN(C)C(=O)c1ccccn1)[C@H](C)CN([C@H](C)CO)S2(=O)=O | i | 1.6 | -3 | -1 | -4.1
COc1ccc(NC(=O)N(C)C[C@@H]2Oc3ccc(NC(=O)Nc4ccc5c(c4)OCO5)cc3C(=O)N([C@H](C)CO)C[C@H]2C)cc1 | i | -0.6 | 2 | 9 | -0.4
C/C=C/c1ccc([C@H]2[C@@H](CO)N3CCCCN(S(=O)(=O)c4ccc(OC)cc4)C[C@H]23)cc1 | i | 6.2 | -56 | -77 | -9.9
O=C(C[C@@H]1C=C[C@H](NC(=O)C2CCOCC2)[C@H](CO)O1)NCc1ccncc1 | i | 0.2 | 0 | -6 | -0.4
COc1cccc(NC(=O)N(C)C[C@@H]2Oc3cc(-c4ccccc4F)ccc3S(=O)(=O)N([C@H](C)CO)C[C@H]2C)c1 | i | -0.6 | -1 | -28 | -1.2
CO[C@H]1CN(C)C(=O)c2cc(NS(=O)(=O)c3c(C)noc3C)ccc2OC[C@@H](C)NC[C@H]1C | i | -2.8 | 2 | 6 | -0.8
Cc1cccc(S(=O)(=O)N[C@H]2CC[C@H](CCNC(=O)Nc3cc(F)ccc3F)O[C@@H]2CO)c1 | i | 9.7 | -4 | -18 | 0.6
C[C@@H]1O[C@H](C2CCCCC2)Cc2[nH][nH]c(=O)c21 | i | -1.5 | 3 | 5 | 0.7
CCCN1C[C@@H](C)[C@H](OC)CN(C)C(=O)c2cc(NC(=O)c3cnccn3)ccc2OC[C@@H]1C | i | -2.6 | 2 | 0 | -1.0
CCCCc1c(-c2ccccc2OC)ncn1Cc1ccc(Cl)cc1 | i | 7.3 | -63 | -79 | -17
COc1ccc2c3c([nH]c2c1)[C@@H](CO)N(Cc1ccccc1)CC31CN(C(=O)c2cccnc2)C1 | i | 0.8 | -4 | 3 | 1.7
C[C@H](CO)N1C[C@H](C)[C@@H](CN(C)C(=O)CN(C)C)Oc2cc(C#Cc3ccc(F)cc3)ccc2S1(=O)=O | i | 12 | 0 | -14 | 5.2
C[C@H]1CN([C@@H](C)CO)C(=O)c2cc(NC(=O)Cc3ccccc3)ccc2O[C@@H]1CN(C)Cc1ccc(C(=O)O)cc1 | i | -0.7 | 5 | -1 | -0.1
C[C@@H](NC(=O)C[C@@H]1CC[C@@H](NC(=O)CN2CCOCC2)[C@H](CO)O1)c1ccccc1 | i | 2.2 | -2 | 8 | 1.0
CO[C@H]1CN(C)C(=O)c2cc(NC(=O)CC(F)(F)F)ccc2OC[C@H](C)N(C(=O)C2CCCCC2)C[C@H]1C | i | -4.1 | 1 | -1 | 3.5
O=C(C[C@H]1CC[C@H](NC(=O)c2ccccc2)[C@@H](CO)O1)NCc1ccc(Oc2ccccc2)cc1 | i | -1.4 | -3 | -3 | -1.6
Cc1cn(CC(=O)NCC2CCCO2)c(=O)[nH]c1=O (stereo not given) | i | -3.5 | -1 | 2 | -7.5
C[C@@H]1CN([C@@H](C)CO)C(=O)Cc2cc(NC(=O)NC3CCCCC3)ccc2O[C@H]1CN(C)C | i | -0.7 | 1 | 8 | -0.1
Cc1ccc(-c2nc3c4ccccc4ccn3c2Cc2cccc(F)c2)cc1 | i | 1.3 | 29 | 17 | 12
C[C@@H]1CN([C@@H](C)CO)C(=O)c2cccc(NC(=O)c3ccc(-c4nccs4)cc3)c2O[C@@H]1CN(C)Cc1ccc(Cl)c(Cl)c1 | i | 1.6 | -5 | 2 | 0.0
C[C@@H]1CN([C@@H](C)CO)S(=O)(=O)c2ccc(C#CC3CCCC3)cc2O[C@@H]1CN(C)C | i | 1.8 | 2 | -8 | 1.0
Cc1noc(C)c1NC(=O)N(C)C[C@@H]1Oc2ccc(NS(=O)(=O)c3ccc(F)cc3)cc2C(=O)N([C@H](C)CO)C[C@H]1C | i | -1.0 | 1 | 5 | -1.9
CC(=O)N(C)C[C@H]1Oc2cc(-c3ccccc3C)ccc2S(=O)(=O)N([C@@H](C)CO)C[C@H]1C | i | -2.4 | -2 | 3 | -1.7
O=C(Nc1cccc(Cl)c1)N1C[C@H]2[C@@H](c3ccccc31)[C@H](CO)N2CC1CCOCC1 | i | 1.6 | -16 | -12 | 1.8
Cc1ccccc1NC(=O)C1C(=O)Nc2ccccc2C(=O)N1Cc1ccccc1 (stereo not given) | i | -0.9 | 10 | 12 | 0.4
O=C(C[C@@H]1CC[C@H]2[C@@H](COC[C@H](O)CN2Cc2cccc(C(F)(F)F)c2)O1)NCCc1ccccc1 | i | -11 | -5 | -18 | 5.6
COC(=O)c1ccc(CNC(=O)C(Cc2ccccc2)NC(=O)c2ccccc2)cc1 (stereo not given) | i | 3.1 | 7 | 15 | -3.2
COCC(=O)Nc1ccc2c(c1)C(=O)N(C)[C@@H]1CC[C@@H](CC(=O)NCCc3ccncc3)O[C@@H]1CO2 | i | -0.7 | -1 | -10 | -3.7
CCCN(C)C[C@@H]1OCCCC[C@@H](C)Oc2ccc(NC(=O)CCCCCC(=O)Nc3ccccc3N)cc2C(=O)N([C@H](C)CO)C[C@@H]1C | i | 2.4 | 1 | -1 | -1.9
N#Cc1cccc(-c2ccc3c(c2)[C@@H]2[C@@H](CCN2Cc2ccncc2)[C@@H](CO)N3)c1 | i | 5.5 | 12 | 30 | 0.8
C[C@@H]1CN([C@@H](C)CO)C(=O)c2cc(NC(=O)NC3CCCCC3)ccc2O[C@H]1CN(C)C(=O)Nc1ccc(F)cc1 | i | -3.2 | -3 | 0 | -1.6
COCC(=O)N(C)C[C@@H]1Oc2cc(-c3ccc(F)cc3)ccc2S(=O)(=O)N([C@@H](C)CO)C[C@H]1C | i | 0.4 | -4 | -14 | -3.5
C[C@H](CO)N1C[C@H](C)[C@@H](CN(C)Cc2ccccc2)Oc2ccc(NC(=O)Nc3ccccc3)cc2C1=O | i | 1.4 | 4 | 2 | 3.8
CNC[C@@H]1Oc2cc(C#Cc3cccc(OC)c3)ccc2S(=O)(=O)N([C@H](C)CO)C[C@H]1C | i | 11 | 0 | 1 | 14
CN(C)CCCNC(=O)C[C@H]1C=C[C@H](NS(=O)(=O)c2ccc(F)cc2)[C@@H](CO)O1 | i | 0.1 | 4 | 8 | -2.8
O=C(C[C@@H]1CC[C@@H](NC(=O)Cc2cccnc2)[C@H](CO)O1)NCc1ccc2c(c1)OCO2 | i | -16 | 3 | 4 | 1.1
CC(C)NC(=O)N[C@@H]1CC[C@H](CCNC(=O)C2CC2)O[C@H]1CO | i | -1.9 | 4 | 4 | -1.3
CNc1cncc(-c2ccc(C)cc2)n1 | i | 5.2 | 6 | 14 | 2.4

Eight neighbouring compounds out of the list so far, for reference:
SMILES | FGF22 binding | AF4-AF9 inh | rRNA inh HTS | rRNA inh HTS OD600 | rRNA inh HTS RFP
C[C@@H]1CN([C@@H](C)CO)C(=O)c2cc(NC(=O)NC3CCCCC3)ccc2O[C@H]1CN(C)C(=O)Nc1ccc(F)cc1 | i | -3.2 | -3 | 0 | -1.6
COCC(=O)N(C)C[C@@H]1Oc2cc(-c3ccc(F)cc3)ccc2S(=O)(=O)N([C@@H](C)CO)C[C@H]1C | i | 0.4 | -4 | -14 | -3.5
C[C@H](CO)N1C[C@H](C)[C@@H](CN(C)Cc2ccccc2)Oc2ccc(NC(=O)Nc3ccccc3)cc2C1=O | i | 1.4 | 4 | 2 | 3.8
CNC[C@@H]1Oc2cc(C#Cc3cccc(OC)c3)ccc2S(=O)(=O)N([C@H](C)CO)C[C@H]1C | i | 11 | 0 | 1 | 14
CN(C)CCCNC(=O)C[C@H]1C=C[C@H](NS(=O)(=O)c2ccc(F)cc2)[C@@H](CO)O1 | i | 0.1 | 4 | 8 | -2.8
O=C(C[C@@H]1CC[C@@H](NC(=O)Cc2cccnc2)[C@H](CO)O1)NCc1ccc2c(c1)OCO2 | i | -16 | 3 | 4 | 1.1
CC(C)NC(=O)N[C@@H]1CC[C@H](CCNC(=O)C2CC2)O[C@H]1CO | i | -1.9 | 4 | 4 | -1.3
CNc1cncc(-c2ccc(C)cc2)n1 | i | 5.2 | 6 | 14 | 2.4

Later entries
SMILES | FGF22 binding | AF4-AF9 inh | rRNA inh HTS | rRNA inh HTS OD600 | rRNA inh HTS RFP
Cn1c(SCC(=O)N2CCCC2)nc2c(c1=O)SCC2 | i | -1.4 | -1 | 0 | -1.1
C[C@H]1CN([C@@H](C)CO)C(=O)c2c(c3ccccc3n2C)-c2ccccc2CO[C@H]1CN(C)CC1CC1 | i | -2.1 | 0 | 9 | -6.4
C[C@@H]1CN([C@@H](C)CO)C(=O)c2cc(NC(=O)NC3CCCCC3)ccc2O[C@H]1CN(C)CC1CCCCC1 | i | 0.6 | 8 | -4 | 0.0
CN1CCN(C2CN(CCc3ccccc3)S(=O)(=O)C2)CC1 (stereo not given) | i | -0.2 | 23 | 18 | -1.4
C[C@H]1CN([C@@H](C)CO)C(=O)c2cccc(NS(=O)(=O)c3cn(C)cn3)c2O[C@@H]1CN(C)Cc1ccc(C(=O)Nc2ccccc2N)cc1 | i | 3.2 | 5 | 1 | -0.8
Cc1cccc(S(=O)(=O)N2CCCCN3[C@H](C2)[C@@H](c2ccc(C#C[C@@H](C)O)cc2)[C@@H]3CO)c1 | i | 0.0 | -6 | -9 | 2.5
COc1ccc(S(=O)(=O)N2CCOCC2)cc1NC(=O)C1CCN(S(=O)(=O)c2ccc(Cl)cc2)CC1 | i | -13 | 10 | 18 | -0.2
CO[C@H](CN(C)S(=O)(=O)c1cccc(Cl)c1)[C@H](C)CN([C@H](C)CO)S(=O)(=O)c1cccc(Cl)c1 | + | -4.0 | -2 | -44 | 29
CN(C)C(=O)C[C@H]1CC[C@H]2[C@@H](COC[C@@H](O)CN2CC2CCCC2)O1 | i | -11 | -2 | -3 | -0.1
C[C@@H]1CCCCO[C@@H](CN(C)C(=O)Nc2ccccc2)[C@@H](C)CN([C@H](C)CO)C(=O)c2cc(NS(=O)(=O)c3ccc(Cl)cc3)ccc2O1 | i | 1.0 | 5 | -2 | -3.6
COc1ccc(S(=O)(=O)N(C)C[C@@H]2Oc3ccc(NC(=O)C4CC4)cc3CC(=O)N([C@H](C)CO)C[C@@H]2C)cc1 | i | -9.2 | 3 | -3 | 2.4
CCOC(=O)C1(COCc2ccccc2)CCCCC1=O (stereo not given) | i | 0.6 | -5 | -1 | 0.8
COc1ccccc1-c1sc2ccccc2c1-c1ccc(OCCN2CCOCC2)cc1 | i | 6.4 | 4 | 1 | 0.7
COc1ccc(C(C)=O)cc1Cn1c(C)c(C(=O)NCc2ccc(C(F)(F)F)cc2)sc1=O | i | -15 | 2 | -10 | -5.3
COCC(=O)N1CCC2(CC1)CN(C(=O)Nc1ccccc1F)[C@H](CO)c1c2c2ccc(OC)cc2n1C | i | 0.5 | -1 | -2 | -1.4
COc1ccccc1S(=O)(=O)Nc1ccc2c(c1)C(=O)N(C)C[C@@H](OC)[C@@H](C)CN[C@H](C)CO2 | i | -2.0 | 2 | 4 | -1.0

Source: PubChem

Not all compounds are listed; rates above refer to the full screens.
